Compound activity deposited in PubChem BioAssay by Center for Chemical Genomics, University of Michigan.
CDC25B CDK2 inh – human CDC25B-CDK2/CyclinA binding inhibition. P30305+P24941. HTRF CDC25B-CDK2/CyclinA binding, anti-His/anti-Flag; stronger effect = higher value. z-score (concentration not given with the values). actives 0.72% (n = 94,000). AID 1259370;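 also: score is relative to mean and SD of negative controls; strong numbers were not always called active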
TAR Tat displ – HIV-1 TAR-Tat binding disruption | HIV-1 TAR RNA, Tat peptide displacement FRET; stronger effect = higher value | z-score (no concentration beside the values) | actives 0.6% (n = 100,000) | AID 1259389;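 also: score is relative to mean and SD of negative controls; some compounds called inactive have numbers as strong as hits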
* = called active by the depositor; x = no result given.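 The calls were made as follows: active = z-score from 3 up in half or more of its runs; inactive = the rest.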

SMILES	CDC25B CDK2 inh	TAR Tat displ
Cc1cccc(-n2c(C)nnc2SCc2nc(-c3cccs3)no2)c1	-0.76	1.18
COc1ccc(C(=O)NCCCCN2CCN(c3ncccc3C(F)(F)F)CC2)cc1	-0.48	x
Cn1cc(NC(=O)NC2CCCC2)c2ccccc2c1=O	x	1.34
CN1C(=O)Cc2cc(S(=O)(=O)N3CCN(Cc4noc5ccccc45)CC3)ccc21	x	0.79
COc1cc(CNc2nc3ccccc3n2C)cc(OC)c1OC	-1.68	x
C/C(=C\COc1cc(=O)[nH]c2ccccc12)CCC(O)C(C)(C)O (centres undefined)	x	-0.35
N#CC1=C2SCN(c3ccc(F)cc3)CN2C(=O)CC1c1cccc(Br)c1 (centres undefined)	3.28*	-1.76
O=C(COc1ccc(Cl)cc1)Nc1ccccc1SCc1cc(=O)n2nc(C3CC3)sc2n1	x	-0.23
CC(=O)Nc1cc(Sc2ccc(Cl)cc2)c(F)cc1[N+](=O)[O-]	-1.35	x
O=C(CSc1nnc2ccc3ccccc3n12)NCC1CCCO1 (centres undefined)	-1.84	x
CCOC(=O)c1c(C)oc2ncnc(NC3CCCCC3C)c12 (centres undefined)	x	-0.18
CCSc1nc(=O)n(-c2ccc(Cl)cc2)c2c1CCC2	-1.08	1.68
O=c1cc(CSc2nc3ccccc3c3nc4ccccc4n23)nc2ccc(Br)cn12	-0.57	x
CCC1(CC)Cc2ccccc2C(NC(=O)NC2CCCCC2)=C1C#N	-1.31	0.85
CCOc1ccc2nc(NC(=O)c3cc(=O)c4cc(C)cc(C)c4o3)sc2c1	-1.86	-1.68
CC1=C(c2ccccc2)S(=O)(=O)N=C1Nc1cc(F)ccc1F	-2.43	-0.34
Cc1nn(-c2ccccc2)c2sc(C(=O)O)cc12	0.88	0.79
CCCc1cc(=O)n2nc(N3CCC(C(=O)NC(C)CC)CC3)sc2n1 (centres undefined)	-0.59	1.04
O=C(O)c1nn(-c2ccccc2)c(=O)cc1SCc1ccccc1	x	0.75
COc1ccc2c(c1)CC(NC(=O)N1CCCC1)CO2 (centres undefined)	x	0.96
Cc1cccn2c(=O)c(C(=O)NCc3cccnc3)cnc12	x	0.51
O=C(/C(=C\c1cccs1)c1ccsc1)N1CCOCC1	-2.12	x
O=C(O)CCn1nc(-c2ccc(F)cc2)ccc1=O	1.5	x
CN(C)c1c(C=C(C#N)C#N)cc(C=C(C#N)C#N)c(N(C)C)c1C#N	-0.23	x
CCn1nnc(NCc2ccccc2OCc2ccc(Cl)cc2)n1	x	1.36

Reprinted from the part before: 7 entries, then new ones.
SMILES	CDC25B CDK2 inh	TAR Tat displ
O=C(O)c1nn(-c2ccccc2)c(=O)cc1SCc1ccccc1	x	0.75
COc1ccc2c(c1)CC(NC(=O)N1CCCC1)CO2 (centres undefined)	x	0.96
Cc1cccn2c(=O)c(C(=O)NCc3cccnc3)cnc12	x	0.51
O=C(/C(=C\c1cccs1)c1ccsc1)N1CCOCC1	-2.12	x
O=C(O)CCn1nc(-c2ccc(F)cc2)ccc1=O	1.5	x
CN(C)c1c(C=C(C#N)C#N)cc(C=C(C#N)C#N)c(N(C)C)c1C#N	-0.23	x
CCn1nnc(NCc2ccccc2OCc2ccc(Cl)cc2)n1	x	1.36
Cc1ccc(C2c3sc(=O)[nH]c3SC3C4CCC(C4)C23)cc1 (centres undefined)	-1.22	x
CCOc1ccc2[nH]c(C)c(CN3CCOCC3)c(=O)c2c1	-0.66	1
Cc1nn(C)c(C)c1Nc1n[nH]c(N)n1	-0.67	x
O=C(C1CC1)N1CCc2cc(Br)cc(S(=O)(=O)NCc3ccc(F)cc3)c21	-0.19	x
O=S(=O)(Nc1ccc(-c2cn3ccsc3n2)cc1)c1cccs1	x	1.49
N#CC1=C(N)OC2=C(C(=O)CCC2)C1c1ccc2c(c1)OCO2 (centres undefined)	0.22	x
CCN(Cc1ccccc1)C(=O)c1cn2c3c(ccc(Cl)c3c1=O)OC(C)C2 (centres undefined)	x	0.51
OC1(C(F)(F)F)OCCN=C1C(F)(F)C(F)(F)C(F)F (centres undefined)	1.04	x
C#CCn1c(C2CC(=O)N(c3ccccc3CC)C2)nc2ccccc21 (centres undefined)	-0.88	-0.51
CCCc1cc(=O)[nH]c(SCC(=O)N2CCN(C(=O)c3ccc(C)cc3)C2)n1	1.48	-0.86
CCOc1ccc(C2C(C(=O)OC(C)CC)=C(C)NC3=C2C(=O)C(C(=O)OC)C(C)C3)cc1OC (centres undefined)	-1.21	-0.8
O=C(Cn1c(=O)c2cccn2c2ccc(F)cc21)N1CCC(N2CCCCC2)CC1	x	2.14
COc1ccc(C2CC(=O)C3=C(C2)NC(C)=C(C#N)C3c2ccc(Br)cc2)cc1 (centres undefined)	0.52	1.31
CC1CC(C)CN(c2nnc(NC(=O)Nc3ccc(Cl)cc3)s2)C1 (centres undefined)	-0.37	-0.92
CC(C)(C)C(=O)O/N=C(\N)Cc1cccc2ccccc12	-1.65	x
CCCNc1nc(Nc2ccc(OC)c(Cl)c2)c2cnn(C)c2n1	x	0.65
COc1ccc(NS(=O)(=O)c2ccc3c(c2)c(=O)n(C)c(=O)n3C)cc1	-1.96	x
Cc1cc2nc(COC(=O)COc3ccccc3F)cc(=O)n2o1	x	0.03
Cc1ccc2c(c1)C(O)(CC(=O)c1ccccc1Br)C(=O)N2 (centres undefined)	x	0.45
CCN(CC)CCCN1C(=O)c2cc3sccc3n2CC1(C)C(=O)NC1CCCCC1 (centres undefined)	-1.14	0.64
Cc1nn(S(=O)(=O)c2ccc(C(C)C)cc2)c(C)c1S(=O)(=O)N1CCCCC1	x	1.66
Cc1c(NC(=O)C(C)(C)C)c(=O)n(-c2ccccc2)n1C	-0.74	x
O=c1nc2c(-c3cccc(F)c3)n[nH]n2c2ccccc12	x	2.52
COc1ccc(COC(=O)C2=C(C)NC3=C(C(=O)CC(C)(C)C3)C2c2cccs2)cc1 (centres undefined)	-1.13	1.19
NC(=O)C1CCN(C(=O)CN2C(=O)c3ccccc3S2(=O)=O)CC1	-2.37	3.14

Some of these compounds in order of count of non-hydrogen atoms, falling:
SMILES	CDC25B CDK2 inh	TAR Tat displ
CCOc1ccc(C2C(C(=O)OC(C)CC)=C(C)NC3=C2C(=O)C(C(=O)OC)C(C)C3)cc1OC (centres undefined)	-1.21	-0.8
C#CCn1c(C2CC(=O)N(c3ccccc3CC)C2)nc2ccccc21 (centres undefined)	-0.88	-0.51
O=S(=O)(Nc1ccc(-c2cn3ccsc3n2)cc1)c1cccs1	x	1.49

Additional entries.
SMILES	CDC25B CDK2 inh	TAR Tat displ
O=C1CSCC(=O)N1c1csc(C(F)(F)F)c1-c1ccccc1	0.41	x
COC(=O)c1sc(N2C(=O)c3oc4cc(C)c(C)cc4c(=O)c3C2c2ccc(F)cc2)nc1C (centres undefined)	-0.33	1.14
CCN1CCN(c2nc(NCCOC)nc3c2cnn3C)CC1	x	1.82
CC1(C)CC(=O)C2=C(C1)N(c1ccccc1)C1=C(C2)C(=O)CC(C)(C)C1	2.82	x
NC(=O)c1cccc(CS(=O)(=O)c2ccc(Cl)cc2)c1	-2.56	x
CCOc1ccccc1C1Nc2ccccc2NC2=C1C(=O)CC(c1ccc3c(c1)OCO3)C2 (centres undefined)	-0.28	0.25
CCOC(=O)c1c(C)n(C)c2ccc(OCC(O)CNC3CCCC3)cc12 (centres undefined)	-0.72	2.7
O=C(N=Nc1c(O)[nH]c2ccc(Br)cc12)c1n[nH]c2c1CCC2	1.66	x
CCC(C(=O)N1CCN(c2ccccc2F)CC1)n1nc(C)n2c(cc3occc32)c1=O (centres undefined)	-1.04	1.29
COc1ccc(N2CSC3=C(C#N)C(c4ccc(SC)cc4)CC(=O)N3C2)cc1 (centres undefined)	2.79	-0.8
Cn1c(-c2nnc(SCC(=O)Nc3ccc(F)cc3)o2)cc2ccccc21	-1.81	1.4
Cc1nc2ccccc2n1CCNS(=O)(=O)c1cccc2nsnc12	x	0.61
COc1ccc(/C=C/c2nc(=O)c(-c3ccccc3)c(C)o2)cc1	-1.76	x
COC(=O)c1sc2ccccc2c1S(=O)(=O)N1CCOCC1	x	0.11
O=S(=O)(NCc1cn2ccccc2n1)c1ccc(Oc2ccccc2)cc1	-0.39	x
OCCSCCc1ccncc1	-1.22	0.52
COC(=O)CC1C(C)(C)C(OC(C)=O)[C@@H]2[C@@H](OC(C)=O)[C@]34O[C@@]2(O)[C@]1(C)C3CC[C@]1(C)C4=CC(=O)O[C@H]1c1ccoc1 (some centres undefined)	x	1.15
COc1ccc(OC)c(-c2noc(Nc3ccc4c(c3)OCO4)n2)c1	x	1.7
O=C(c1ccoc1)N1CCN(c2nn3nnnc3c3ccccc23)CC1	-1.17	-0.16
CC(=O)N(CCCN(C)C)c1nc2ccc(F)cc2s1	x	0.8
O=C1C(c2ccccc2)=C(Nc2ccccc2)c2ccccc21	-0.63	-0.81
CCc1nn(CC(=O)N2CCC(N3CCCCC3)CC2)c(=O)c2cc3sccc3n12	1.03	0.66
Cc1cc(C)cc(NC(=O)Nc2csc3c2CCCC3)c1	-1.48	1.53
CCCCSc1nnc2c(n1)OC(c1ccc(C)o1)Nc1ccccc1-2 (centres undefined)	-1.8	x
Cc1ccc(CN2CCC(CNc3ncnc4onc(-c5ccc(F)cc5)c34)CC2)cc1	x	-0.29

The list continues:
SMILES	CDC25B CDK2 inh	TAR Tat displ
Cc1nn2c(-c3ccccc3)csc2nc1=O	-0.48	x
CC(C)Oc1ccc(C2CC(=O)Nc3nc(SCc4ccccc4F)[nH]c(=O)c32)cc1 (centres undefined)	-0.84	0.57
Fc1cc(F)cc(-c2noc3ncnc(N4CCCC4)c23)c1	x	0.67
Cc1nnc2c(N3CCN(c4ccccc4)CC3)nc3ccccc3n12	-0.98	1.41
CCOC(=O)CC1(NC(=O)N2CCC3(CC2)Nc2ccccc2-n2cccc23)CCCCC1	x	0.18
CC(=O)Oc1ccc(Br)cc1C1=NN(C(C)=O)C(c2cnccn2)O1 (centres undefined)	x	1.15
NNC(=O)c1nc(COc2ccccc2Cl)no1	-0.78	x
COc1ccc(COC(=O)NNC(=O)/C=C/c2ccccc2)cc1	-1.12	x
Cc1ccc2cc(CCNC(=O)c3ccc4c(c3)OCO4)c(=O)[nH]c2c1	-2.13	x
Cc1ccc(C(C)C)c(OCc2nnc3c4cnn(Cc5ccccc5)c4ncn23)c1	-0.47	1.07
O=S(=O)(NCCSCc1ccco1)c1cc(S(=O)(=O)c2ccccc2)cs1	-2.01	x
CC1CCN(c2nn3c(=O)c(C(=O)NCc4ccccn4)cnc3s2)CC1	x	-1.45
CCCNc1nc(C(=O)OCC)nc2c1oc1ccccc12	x	2.13
CCCC(=O)OCc1cnc(C)c2oc(=O)c(-c3nc(-c4ccc5c(c4)OCO5)no3)cc12	x	-5.48
O=C(O)CN1C(=O)C2CCCCN2c2ccc(S(=O)(=O)N3CCCC3)cc21 (centres undefined)	x	0.73
O=C1COCC(=O)N1c1ccc2c(c1)OCO2	0.53	x
O=S(=O)(c1ccc2nc(N3CCc4ccccc4C3)ccc2c1)N1CCCCC1	x	0.75
CCOC(=O)c1nc(N2CCOCC2)c2oc3ccccc3c2n1	x	0.89
O=C(NCC1CCCO1)c1cnn2c3c(cnc12)CCCC3 (centres undefined)	x	-0.58
O=C(Cn1ncc2c3ccccc3n(Cc3ccc(F)cc3)c2c1=O)NCc1ccc2c(c1)OCO2	0.92	0.27
CC(C)CC(=O)NCC(c1cccs1)S(=O)(=O)c1cccs1 (centres undefined)	x	1.52
CN(C)c1nc(Nc2ccccc2)c2cnn(C)c2n1	x	1.26
O=C(CSc1nc2c(cnn2-c2ccc(F)cc2)c(=O)[nH]1)c1ccccc1	-0.94	x
Fc1ccc(CNc2ncnc3c2nc2n3CCCC2)cc1	x	-0.57
O=C(CCOc1ccccc1)Nc1nccs1	-0.63	x

Profiles, quoted from the list. Order of values: CDC25B CDK2 inh	TAR Tat displ
`CCOc1ccc2[nH]c(C)c(CN3CCOCC3)c(=O)c2c1` in the list: -0.66	1
`CC(C)CC(=O)NCC(c1cccs1)S(=O)(=O)c1cccs1` (centres undefined) in the list: x	1.52

Following part
SMILES	CDC25B CDK2 inh	TAR Tat displ
Oc1ccccc1OCc1nc2ccccc2s1	-0.28	0.91
CCCN1CCN(CCCNC(=O)c2sc3nc4n(c(=O)c3c2C)CCCC4)CC1	x	1.48
CCCNC(=O)Cc1sc(C)nc1-c1cccs1	-1.67	-1.17
Cn1c(C2=C(O)CN(c3ccc(O)cc3)C2=N)nc2ccccc21	-1.54	2.37
Cc1nc(SCc2c(F)cccc2F)[nH]c(=O)c1C#N	x	1.95
Nc1nc(-c2ccc(Cl)cc2)nn1C(=O)C1CC1	-0.46	-1.12
CC(=O)N1CC(C)Sc2ccc(S(=O)(=O)N3CCCc4ccccc43)cc21 (centres undefined)	x	2.41
CCCC(=O)Oc1ccc(NC2=NS(=O)(=O)c3ccccc32)cc1	-0.86	1.43
CSc1nnc2n(-c3ccc(C)cc3)c(=O)c3c4c(sc3n12)COC(C(C)C)C4 (centres undefined)	-1.96	x
COc1ccc(S(=O)(=O)NCc2cccn2Cc2ccc(Cl)cc2)cc1OC	x	0.49
CCOC(=O)C(=O)c1csc(NC(=O)c2ccco2)n1	-1.64	1.88
O=c1[nH]cc(C(F)(F)F)c(=O)[nH]1	-1.03	x
COc1cc(Cl)c(NS(=O)(=O)c2cc(-c3cnc(C4CC4)o3)ccc2C)c(OC)c1	x	0.64
O=C1CC(c2nc3ccccc3n2CCc2ccccc2)CN1c1ccccc1 (centres undefined)	-1.48	0.66
COc1ccc(NC2=NS(=O)(=O)C(c3ccc(C)c(C)c3)=C2C)c(OC)c1	-3.46	0.5
O=C(Oc1cccc(Br)c1)c1cc(-c2ccc3c(c2)OCCO3)on1	1.39	-1.45
Cc1ccc(-c2cn3c(n2)sc2cc(C(=O)NC(C)C)ccc23)cc1	x	2.15
Cc1sc2ncn(CC(=O)NCCCC(=O)N3CCC(C)CC3)c(=O)c2c1C	0.34	x
CCCN(CCC)C(=O)C1CCCN(c2ncnc3onc(C)c23)C1 (centres undefined)	x	2.22
CCOC(=O)C1CCN(C(=O)c2sc3nc4n(c(=O)c3c2C)CCCC4)CC1	x	1.45

Hits appear at their usual frequency. Share with any hit: about 0.94%.
